# High-throughput results (PubChem)
# rRNA inh HTS – selective bacterial rRNA inhibition in E. coli; GFP signal change (wild-type ribosome), % (test concentration not listed); 350,000 compounds, 1.6% hits; E. coli WT GFP vs humanized-ribosome RFP mutants, fluorescence, 24 h; active compounds read low; DMSO median 0, no signal -100;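 active = significant combined selectivity score with lowered wild-type GFP, culture density cut under 30%, mutant RFP and density less affected; inactive = any of these conditions unmet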; note: one replicate is shown; some compounds called inactive have numbers as strong as hits
# FGF22 binding – shifts melting point of recombinant human FGF22 | Q9HCT0 | recombinant FGF22 thermal shift, SYPRO orange fluorescence; percent of sucrose octasulfate shift, DMSO zero | calls only at 9.99 µM | 340,000 compounds, 1.5% hits;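 active = melting point raised past a set limit in the mean and every replicate; three in four hits are not shown here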
# Target sequence (Q9HCT0 whole entry, looked up): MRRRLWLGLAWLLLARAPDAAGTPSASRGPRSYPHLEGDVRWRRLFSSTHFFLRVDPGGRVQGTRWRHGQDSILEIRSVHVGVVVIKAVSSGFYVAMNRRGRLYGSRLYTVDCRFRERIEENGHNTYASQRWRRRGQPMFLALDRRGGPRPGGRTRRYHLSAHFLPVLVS
# MLL AF4-AF9 inh – MLL-AF4/AF9 protein interaction inhibition; AlphaScreen, biotin-AF4 peptide binding to FLAG-AF9; inhibition, % at 10 µM; 350,000 compounds, 0.47% hits;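 active = every replicate reaching a set inhibition limit, whatever the replicate mean, cut at about 25% in these data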;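 note: 0% = plate neutral control median and 100% = total signal loss; the record names both 10 and 1 µM as test concentration; the first replicate is given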
# Target sequence (P42568 whole entry, looked up): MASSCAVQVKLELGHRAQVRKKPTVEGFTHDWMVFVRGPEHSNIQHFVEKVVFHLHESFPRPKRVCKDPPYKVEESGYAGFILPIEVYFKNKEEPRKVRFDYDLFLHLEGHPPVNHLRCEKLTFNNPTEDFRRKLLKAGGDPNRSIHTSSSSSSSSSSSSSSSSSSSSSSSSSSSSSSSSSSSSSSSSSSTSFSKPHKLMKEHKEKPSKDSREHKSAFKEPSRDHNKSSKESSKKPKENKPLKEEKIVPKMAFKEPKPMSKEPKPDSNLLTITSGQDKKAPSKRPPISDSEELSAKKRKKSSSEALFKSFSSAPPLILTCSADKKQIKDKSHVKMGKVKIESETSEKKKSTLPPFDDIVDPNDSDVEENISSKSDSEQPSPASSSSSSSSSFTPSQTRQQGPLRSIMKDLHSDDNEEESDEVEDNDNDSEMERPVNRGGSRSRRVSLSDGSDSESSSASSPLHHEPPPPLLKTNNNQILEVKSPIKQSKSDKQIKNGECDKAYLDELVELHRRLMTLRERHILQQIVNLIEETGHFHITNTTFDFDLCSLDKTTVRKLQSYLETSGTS
# rRNA inh HTS OD600 – further read-out of rRNA inh HTS, marked with its call; OD600 change, %; measured here: OD600 growth;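 optical density of the mix in the first replicate; 0 = DMSO median and -100 = no signal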
# rRNA inh HTS RFP – further read-out of rRNA inh HTS, marked with its call; RFP signal change, %; measured here: RFP humanized mutant strains;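 first replicate; 0 = DMSO median and -100 = no signal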
# * hit, by the source's call; i = inactive; & = joins results of further samples. An excerpt. The share of hits here may be higher or lower than overall.
structure,FGF22 binding,rRNA inh HTS OD600,rRNA inh HTS RFP,MLL AF4-AF9 inh,rRNA inh HTS
COc1ccc([C@H]2C[C@@H](n3cc(COC(=O)c4ccccc4)nn3)[C@H](O)CN2Cc2cccs2)cc1,i,8,1.5,-13,5
CCS(=O)(=O)Nc1ccc2c(c1)C(=O)N(C)[C@@H]1CC[C@H](CC(=O)NCc3ccccc3F)O[C@H]1CO2,i,10,-0.8,-22,5
Cc1ccc(S(=O)(=O)N[C@@H]2CC[C@H](CCn3cc(-c4cccnc4)nn3)O[C@@H]2CO)cc1,i,0,1.9,-2.3,0
O=C(C1CC1)N1C[C@H]2[C@@H](c3ccccc31)[C@@H](CO)N2C(=O)Nc1cccc(F)c1,i,2,0.3,-7.9,0
CCCNC(=O)N1CC2(C1)[C@@H](c1ccccc1)[C@@H](CO)N2Cc1ccc(F)cc1,i,-7,1.0,-1.7,-6
C[C@@H]1CN([C@@H](C)CO)C(=O)c2cccc(NC(=O)Nc3ccc(C(F)(F)F)cc3)c2O[C@@H]1CN(C)C(=O)Nc1ccccc1,i,4,1.8,1.3,-1
Cc1ccc(NC(=O)c2cc(-c3cc(F)ccc3OCC3CCCO3)n[nH]2)cc1NS(C)(=O)=O (stereo not given),i,-13,-2.8,1.2,-10
C[C@H]1CN([C@@H](C)CO)C(=O)c2cc(-c3cccc(C#N)c3)cnc2O[C@H]1CN(C)Cc1ccncc1,i,17,-1.3,-6.2,4
C[C@@H]1CN([C@@H](C)CO)C(=O)c2ccccc2-c2ccccc2CO[C@H]1CN(C)S(=O)(=O)c1ccc(C#N)cc1,i,-7,-0.3,-1.4,-1
CCC(=O)N[C@@H]1CC[C@@H](CCNC(=O)Nc2ccc(F)cc2)O[C@@H]1CO,i,-7&10,0.5&0.2,-0.2&0.8,0&14
Cc1ccc(F)c(S(=O)(=O)NC(=O)C2(C)CCN2C(=O)C2(c3ccc(Cl)cc3)CCC2)c1 (stereo not given),i,2,0.5,-1.0,-6
CCC(=O)N1CCCCN2[C@H](CO)[C@H](c3ccc(C#Cc4ccccc4)cc3)[C@H]2C1,i,-15,5.7,0.6,5
O=C(C[C@H]1CC[C@H]2NC[C@H](O)COC[C@@H]2O1)N1CCc2ccccc2C1,i,-3,-3.6,-23,-5
CO[C@@H]1CN(C)C(=O)c2ccc(NC(=O)C3CCC3)cc2OC[C@@H](C)N(C(=O)NC(C)C)C[C@@H]1C,i,4,-0.8,-0.8,-1
C[C@@H]1CCCCO[C@@H](CN(C)C(=O)Cc2ccccc2)[C@@H](C)CN([C@@H](C)CO)C(=O)c2cc(NS(=O)(=O)c3ccccc3)ccc2O1,i,-12,0.2,-0.5,-1
Cc1noc(C)c1NC(=O)Nc1ccc2c(c1)CC(=O)N([C@@H](C)CO)C[C@H](C)[C@@H](CN(C)C(=O)Nc1ccc(C(F)(F)F)cc1)O2,i,6,1.2,-0.4,3
CO[C@H](CN(C)C(=O)c1ccccc1F)[C@@H](C)CN([C@@H](C)CO)S(=O)(=O)c1ccc(C)cc1,i,-6,-4.7,3.3,-1
CCCNC(=O)Nc1ccc2c(c1)OC[C@@H](C)N(CCC)C[C@H](C)[C@@H](OC)CN(C)C2=O,i,-3,-0.2,-1.8,0
CCCNC(=O)N1[C@H](C#N)[C@@H](c2ccccc2-c2ccccc2F)[C@H]1CO,i,-7,6.6,-0.3,2
CC(C)(C)c1ccc(CC(=O)N2CCC2(C)C(=O)NS(=O)(=O)c2cccc(C#N)c2)cc1 (stereo not given),i,9,1.4,-1.9,4
COc1ccccc1C(=O)N1C[C@H]2[C@@H](c3ccccc31)[C@@H](CO)N2C(=O)C1CCCC1,i,7,-1.9,-0.5,3
C[C@@H]1CN([C@@H](C)CO)C(=O)c2cc(NS(=O)(=O)c3ccc(Cl)cc3)ccc2O[C@@H](C)CCCCO[C@@H]1CN(C)S(=O)(=O)c1ccccc1,i,20,-4.0,-5.9,1
CC(C)C[C@@H]1COCc2cn(nn2)CC[C@@H](Cc2ccccc2)C(=O)N1,i,6,0.0,-9.2,0
COCC(=O)Nc1ccc2c(c1)OC[C@@H](C)N(CC1CC1)C[C@H](C)[C@H](OC)CN(C)C2=O,i,1,-0.1,-1.6,2
Cc1ccccc1S(=O)(=O)N1[C@H](C#N)[C@H](c2ccc(-c3ccccc3)cc2)[C@@H]1CO,i,-38,34,-1.5,-7
C[C@H](CO)N1C[C@H](C)[C@@H](CN(C)S(=O)(=O)c2cn(C)cn2)Oc2ccc(NC(=O)Cn3cnnn3)cc2CC1=O,i,2,-2.5,1.3,2
CC1(C(=O)Nc2ccc3c(c2)OCCO3)CSCC(=O)N1CCOc1ccccc1 (stereo not given),i,-14*,6.6*,0.8,-20*
C[C@@H]1CN([C@@H](C)CO)C(=O)c2c(c3ccccc3n2C)-c2ccccc2CO[C@H]1CN(C)C(=O)C1CC1,i,3&-1,-1.1&-1.0,-0.9,3&1
C[C@H](CO)N1C[C@H](C)[C@H](CN(C)C(=O)Nc2ccc(C(F)(F)F)cc2)Oc2ccc(NS(=O)(=O)c3ccccc3)cc2CC1=O,i,-1,1.4,-13,3
CSc1ncnc2c1ncn2CC(=O)C1CCC2C3CCC4=CC(=O)CCC4(C)C3CCC12C (stereo not given),i,-40,7.4,-2.6,-14
Cc1ccc(S(=O)(=O)Nc2ccc3c(c2)C(=O)N([C@@H](C)CO)C[C@@H](C)[C@@H](CN(C)C(=O)Nc2ccccc2)OCCCC[C@H](C)O3)cc1,i,-5,-2.0,-1.0,-2
CNC[C@H]1Oc2c(NC(=O)c3ccncc3)cccc2C(=O)N([C@H](C)CO)C[C@@H]1C,i,-7,-1.6,-21,0
Cc1ccc(S(=O)(=O)N(C)C[C@H]2Oc3ncc(Br)cc3C(=O)N([C@@H](C)CO)C[C@@H]2C)cc1,i,-2,-0.5,0.5,-6
C[C@@H]1CN([C@H](C)CO)C(=O)c2cccc(NS(=O)(=O)c3cn(C)cn3)c2O[C@H]1CN(C)C(=O)Nc1ccc2c(c1)OCO2,i,3,-1.7,-1.8,3
C[C@@H]1CN([C@H](C)CO)C(=O)c2cc(N(C)C)ccc2O[C@@H](C)CCCCO[C@@H]1CN(C)C(=O)CCCN(C)C,i,0,-2.6,0.0,0
CC(C)(C)NC(=O)C(c1ccnc2ccccc12)n1c(=O)c(-c2ccco2)nc2ccccc21 (stereo not given),i,4,6.0,7.8,6

# An excerpt from above in order of heavy-atom count, ascending:
structure,FGF22 binding,rRNA inh HTS OD600,rRNA inh HTS RFP,MLL AF4-AF9 inh,rRNA inh HTS
CNC[C@H]1Oc2c(NC(=O)c3ccncc3)cccc2C(=O)N([C@H](C)CO)C[C@@H]1C,i,-7,-1.6,-21,0
Cc1ccc(S(=O)(=O)N(C)C[C@H]2Oc3ncc(Br)cc3C(=O)N([C@@H](C)CO)C[C@@H]2C)cc1,i,-2,-0.5,0.5,-6
C[C@@H]1CN([C@H](C)CO)C(=O)c2cc(N(C)C)ccc2O[C@@H](C)CCCCO[C@@H]1CN(C)C(=O)CCCN(C)C,i,0,-2.6,0.0,0
C[C@@H]1CN([C@H](C)CO)C(=O)c2cccc(NS(=O)(=O)c3cn(C)cn3)c2O[C@H]1CN(C)C(=O)Nc1ccc2c(c1)OCO2,i,3,-1.7,-1.8,3
Cc1ccc(S(=O)(=O)Nc2ccc3c(c2)C(=O)N([C@@H](C)CO)C[C@@H](C)[C@@H](CN(C)C(=O)Nc2ccccc2)OCCCC[C@H](C)O3)cc1,i,-5,-2.0,-1.0,-2

# Next part.
structure,FGF22 binding,rRNA inh HTS OD600,rRNA inh HTS RFP,MLL AF4-AF9 inh,rRNA inh HTS
COC(=O)[C@]12CCCCC=C1N(Cc1cccc3ccccc13)C(=O)[C@H](CC(=O)N1CCCCC1)C2,i,-1,1.3,5.6,-12
CO[C@@H]1CN(C)C(=O)c2ccc(NC(=O)C3CCCCC3)cc2OC[C@@H](C)NC[C@@H]1C,i,7,-0.8,-5.3,1
CC(=O)N1CC[C@@H]2[C@@H](CO)Nc3ccc(C#Cc4ccccc4F)cc3[C@@H]21,i,2,-2.6,6.0,4
COc1ccc2c3c(n(C)c2c1)[C@@H](CO)N(C(=O)Cc1ccccc1)CC31CN(C(C)=O)C1,i,3,-4.6,-5.8,-7
O=C(Nc1ccc2c(c1)[C@@H]1C[C@@H](CC(=O)N3CCOCC3)O[C@H](CO)[C@@H]1O2)NC1CCCCC1,i,8,-0.8,-2.3,4
Cc1ccccc1CSCC1Nc2ccc(C(=O)NCCc3ccccc3)cc2NC1=O (stereo not given),i,15,4.0,0.4,5
CC1(C(=O)NCc2cccc3ccccc23)CCN1C(=O)Cc1ccc(-c2ccccc2)cc1 (stereo not given),i,3,21,-1.7,4
Cc1onc(-c2ccccc2)c1C(=O)OCC(=O)c1ccc[nH]1,i,-6,-3.3,0.3,-2
Cc1cccc(-c2ccccc2[C@H]2[C@@H](C#N)N(c3ncc(-c4ccccc4)s3)[C@@H]2CO)c1,i,-2,2.1,1.0,0
CO[C@@H]1CN(C)C(=O)c2cc(NC(=O)NC3CCCCC3)ccc2OC[C@@H](C)N(C(C)=O)C[C@@H]1C,i,3,0.2,4.1,1
COc1ccc(NC(=O)N(C)C[C@H]2OCCCC[C@@H](C)Oc3ccc(NC(=O)Nc4ccc(C(F)(F)F)cc4)cc3C(=O)N([C@H](C)CO)C[C@H]2C)cc1,i,3,-0.7,0.0,3
C[C@@H]1CCCCO[C@@H](CN(C)C(=O)c2ccccc2)[C@@H](C)CN([C@@H](C)CO)C(=O)c2cc(NC(=O)Nc3ccc(F)cc3)ccc2O1,i,-2,-0.5,-8.8,-3
COc1cccc(C(=O)Nc2ccc3c(c2)C(=O)N(C)C[C@H](OC)[C@H](C)CN(C)[C@H](C)CO3)c1,i,5,-0.9,-1.5,0
COc1ccc(-c2oc3c(c2C(=O)OCCCO)C(OCCCCCO)CCC3)cc1 (stereo not given),i,-3,4.8,1.4,-9
Cc1cc(NC(=O)CS(=O)(=O)c2cn(Cc3cccc(C(F)(F)F)c3)c3ccccc23)no1,i,13,9.3,0.5,-1
C[C@@H]1CN([C@@H](C)CO)C(=O)c2cc(-c3cccc(C#N)c3)cnc2O[C@@H]1CN(C)C(=O)c1cnccn1,i,-2,-1.3,-2.5,3
CC(C)NC(=O)N(C)C[C@@H]1OCCCC[C@@H](C)Oc2ccc(NC(=O)c3ccccc3)cc2C(=O)N([C@H](C)CO)C[C@@H]1C,i,5,-2.3,-0.4,-2
CSCCNC(=O)C1(C)CCN1C(=O)c1sccc1C (stereo not given),i,7,-3.4,1.1,12
COc1ccc(C(=O)N2C=Cc3ccccc3C2C#N)cc1 (stereo not given),i,-3,-2.7,-2.7,-5
COc1ccc2c3c([nH]c2c1)[C@H](CO)N(Cc1ccccn1)CC31CN(C(=O)c2ccccn2)C1,i,5,-1.4,3.6,-3
C[C@@H]1CCCCO[C@H](CN(C)C(=O)Nc2ccc(F)cc2)[C@@H](C)CN([C@@H](C)CO)C(=O)c2cc(NS(=O)(=O)c3cccs3)ccc2O1,i,-6,0.3,-4.8,1
Cc1noc(C)c1NC(=O)NCC[C@H]1CC[C@H](NC(=O)c2ccc(F)cc2)[C@H](CO)O1,i,3,0.4,-0.3,-5
CN(C)C(=O)c1cccc(-c2ccc3c(c2)[C@H]2[C@H](CCN2C(=O)Cc2ccccc2)[C@H](CO)N3)c1,i,-10,1.0,0.6,-3
C[C@H]1CN([C@@H](C)CO)C(=O)c2cccc(NC(=O)C3CCOCC3)c2O[C@@H]1CN(C)C,i,11,2.3,-8.1,7
COc1ccc(CN(C)C[C@H]2OCCCC[C@@H](C)Oc3ccc(NC(=O)c4ccncc4)cc3C(=O)N([C@H](C)CO)C[C@@H]2C)cc1,i,8,-0.2,1.3,5
CCC(=O)Nc1ccc2c(c1)C(=O)N(C)C[C@H](OC)[C@@H](C)CN(C(=O)C1CCC1)[C@@H](C)CO2,i,9,3.0,-1.1,1
O=C(NNC(=O)c1ccco1)c1ccco1,i,22,2.1,-3.6,15
COc1ccc(-c2ccc3c(c2)C2CC3CCN2CCC#N)cc1 (stereo not given),i,-19*,-3.2*,1.5,-28*
COc1ccc(S(=O)(=O)Nc2cccc3c2O[C@H](CN(C)C(=O)NC(C)C)[C@H](C)CN([C@@H](C)CO)C3=O)cc1,i,-12,2.3,-1.3,2
C[C@@H]1CN([C@H](C)CO)C(=O)c2cc(NS(=O)(=O)c3cccs3)ccc2O[C@@H](C)CCCCO[C@H]1CN(C)S(=O)(=O)c1ccccc1,i,-5,0.7,-2.1,-1
CCCCN(C)C(=O)c1ccc(Nc2nc(C(N)COCc3ccccc3)cs2)nc1 (stereo not given),i,-2,2.7,4.5,-3
